# supercomplex z = modulators of mitochondrial supercomplex assembly, cell-based, luminescence, Hoechst nuclei count (AID 1645838); Cells, luminescence/Hoechst cell count ratio, supercomplex reporter; active compounds read high; z-score at 11 µM unless noted; 2,000 compounds, 5% hits;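 active = mean z-score of two plates above 1.96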;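 also: control cybrid cells; higher means more mitochondrial supercomplex formation; U2OS-based cells read after two days; 0 = mean of sample wells on the plate; doses worked out from stocks diluted about 900-fold with the highest of each compound shown; many of its hits are not listed in these tables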
# supercomplex z cell count = further read-out of supercomplex z, marked with its call; cell count; measured here: cell number, Hoechst nuclei count;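 nuclei per well as mean of two plates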
# An asterisk follows results filed as active; i = inactive; x = not tested or not shown. This is a subset; rates above refer to the full screens.
# Start of the data: the first two compounds (preview)
molecule | supercomplex z | supercomplex z cell count
COc1cc2c(cc1OC)CC(=O)N(CCCN(C)CC1Cc3cc(OC)c(OC)cc31)CC2 (stereo unspecified) | -0.27 | 5434
Cc1ccc(C)c(-n2sc3cc(F)ccc3c2=O)c1 | 1.4 | 2658

# Main list, from the first entry:
molecule | supercomplex z | supercomplex z cell count
COc1cc2c(cc1OC)CC(=O)N(CCCN(C)CC1Cc3cc(OC)c(OC)cc31)CC2 (stereo unspecified) | -0.27 | 5434
Cc1ccc(C)c(-n2sc3cc(F)ccc3c2=O)c1 | 1.4 | 2658
CC(=O)Nc1nnc(S(N)(=O)=O)s1 | -0.33 | 5262
CC1CN(CC(=O)Nc2ccc3c(c2)Cc2cccc(-c4cc(=O)cc(N5CCOCC5)o4)c2S3)CC(C)O1 (stereo unspecified) | 4.5* | 1841*
O=C(O)Cc1cccc(OCCCN(Cc2cccc(C(F)(F)F)c2Cl)CC(c2ccccc2)c2ccccc2)c1 | -0.76 | 5666
CC(=O)Nc1ccc(C(=O)Nc2sc(Nc3ccccc3)nc2C(N)=O)cc1 | 5.1* | 2948*
CCCCS(=O)(=O)NC(Cc1ccc(OCCCCC2CCNCC2)cc1)C(=O)O (stereo unspecified) | -0.3 | 6961
CN(CCOc1ccc(CC2SC(=O)NC2=O)cc1)c1ccccn1 (stereo unspecified) | 0.25 | 4268
CC(C)NCC(O)COc1cccc2[nH]ccc12 (stereo unspecified) | -0.95 | 6763
C[C@]12CCC(O)CC1=CC[C@@H]1[C@@H]2CC[C@]2(C)C(c3cccnc3)=CC[C@@H]12 (stereo partly specified) | -0.13 | 5544
O=C(O)CCc1ccc(NCc2cccc(Oc3ccccc3)c2)cc1 | -0.26 | 5695
COc1cc2ncnc(Nc3cc(Br)c(O)c(Br)c3)c2cc1OC | -0.69 | 5090

# A run of entries from the list above, as a working copy:
molecule | supercomplex z | supercomplex z cell count
COc1cc2c(cc1OC)CC(=O)N(CCCN(C)CC1Cc3cc(OC)c(OC)cc31)CC2 (stereo unspecified) | -0.27 | 5434
Cc1ccc(C)c(-n2sc3cc(F)ccc3c2=O)c1 | 1.4 | 2658
CC(=O)Nc1nnc(S(N)(=O)=O)s1 | -0.33 | 5262
CC1CN(CC(=O)Nc2ccc3c(c2)Cc2cccc(-c4cc(=O)cc(N5CCOCC5)o4)c2S3)CC(C)O1 (stereo unspecified) | 4.5* | 1841*
O=C(O)Cc1cccc(OCCCN(Cc2cccc(C(F)(F)F)c2Cl)CC(c2ccccc2)c2ccccc2)c1 | -0.76 | 5666
CC(=O)Nc1ccc(C(=O)Nc2sc(Nc3ccccc3)nc2C(N)=O)cc1 | 5.1* | 2948*

# Remaining list, next part:
molecule | supercomplex z | supercomplex z cell count
CCOC(=O)C(N)CCC(=O)NC(CSCc1ccccc1)C(=O)NC(C(=O)OCC)c1ccccc1 (stereo unspecified) | -0.092 | 5752
COc1cc(OC)cc(C(=O)NNC(=O)Nc2cccc3ccccc23)c1 | -0.36 | 6092
Cc1cncc2cccc(S(=O)(=O)N3CCCNCC3C)c12 (stereo unspecified) | -0.3 | 4610
N=C(N)c1ccc2cc(OC(=O)c3ccc(N=C(N)N)cc3)ccc2c1 | -0.021 | 6565
c1ccc(Cc2ccncc2)cc1 | -0.17 | 5216
CN1CCN(C2=Nc3cc(Cl)ccc3Nc3ccccc32)CC1 | -1.2 | 5815
CC(CN1CC(=O)NC(=O)C1)N1CC(=O)NC(=O)C1 (stereo unspecified) | -0.76 | 5792
COc1cc(C(=O)NC2CCN(C)CC2)ccc1Nc1ncc2c(n1)N(C1CCCC1)CCC(=O)N2C(C)C | 1.4 | 4326
C=CC(=O)Nc1cc(-n2c(=O)ccc3cnc4ccc(-c5cn[nH]c5)cc4c32)ccc1C | i | x
CCc1cc(C(C)=NOCc2ccc(C3CCCCC3)c(C(F)(F)F)c2)ccc1CN1CC(C(=O)O)C1 | -0.16 | 4814
CC(=O)SCC(Cc1ccccc1)C(=O)NCC(=O)OCc1ccccc1 (stereo unspecified) | 0.08 | 4192
CCOc1cc(CC(=O)NC(CC(C)C)c2ccccc2N2CCCCC2)ccc1C(=O)O (stereo unspecified) | -0.2 | 4736
COc1ccc(C(=O)C(=O)c2ccccc2)cc1 | -0.26 | 4942
Cc1[nH]cnc1CN1CCc2c(c3ccccc3n2C)C1=O | -0.55 | 5320
Cn1cc(C2=C(c3ccc(Cl)cc3Cl)C(=O)NC2=O)c2ccccc21 | -2.4 | 6830
O=C(CC(c1ccccc1)c1ccccc1)N1CCN(C(c2ccccc2)c2ccccc2)CC1 | -1 | 6672
CC(C)N(CCCNC(=O)Nc1ccc(C(C)(C)C)cc1)CC1OC(n2cc(Br)c3c(N)ncnc32)C(O)C1O (stereo unspecified) | -0.45 | 4752
Cc1ccc(-c2c(C(=O)CF)n(CCCO)c3ncnc(N)c23)cc1 | -0.095 | 5456
CNC(=O)c1ccc(Nc2cc(Nc3ccccc3S(=O)(=O)C(C)C)c3cc[nH]c3n2)nc1 | i | x
O=C(O)c1cccc(S(=O)(=O)N2CCc3ccccc3C2)c1 | 0.048 | 4982
O=P(O)(O)C(O)(Cc1cccnc1)P(=O)(O)O | -0.53 | 7592
CCCc1nc2c(C)cc(-c3nc4ccccc4n3C)cc2n1Cc1ccc(-c2ccccc2C(=O)O)cc1 | -0.33 | 4324
N#Cc1cc(CN2CCC(Nc3ncnc4sc(Cl)cc34)CC2)ccc1F | -0.85 | 4648
Cc1n[nH]c(C)c1Cc1sc2c(c1C(=O)N1CC(O)CO1)c(=O)n(C)c(=O)n2CC(C)C (stereo unspecified) | -0.75 | 5638
COc1c(C)c(C(=O)c2ccc(N)c(C(=O)O)c2)n2ccccc12 | -0.65 | 5534
Clc1ccc(Cc2ccncc2)cc1 | 0.38 | 6083
Cc1cncc(CN2CCC(=C3c4ccc(Cl)cc4CCc4cccnc43)CC2)c1 | -0.91 | 4868
Fc1ccc(C2CCNCC2COc2ccc3c(c2)OCO3)cc1 (stereo unspecified) | 0.079 | 4204
CC(C)(C)n1nc(-c2ccc(Cl)cc2)c2c(N)ncnc21 | 1.7 | 4154
O=C(NCC1CN(c2ccc(N3CCOCC3=O)cc2)C(=O)O1)c1ccc(Cl)s1 (stereo unspecified) | -0.45 | 5436
O=C(Cc1cccc(OC(F)(F)F)c1)Nc1ccc(CCCCc2nnc(NC(=O)Cc3ccccn3)s2)nn1 | 4.5* | 3944*
CCC(C)(C)C(=O)OC1CC(C)C=C2C=CC(C)C(CCC3CC(O)CC(=O)O3)[C@H]21 (stereo partly specified) | 3.3* | 2654*
O=C(O)COCCN1CCN(C(c2ccccc2)c2ccc(Cl)cc2)CC1 (stereo unspecified) | -0.47 | 5166
C#Cc1c[nH]c(=O)[nH]c1=O | -0.039 | 4970
COc1c(C)c2c(c(O)c1CC=C(C)CCC(=O)O)C(=O)OC2 | i | x
CC1(C)CC[C@]2(C(=O)O)CC[C@]3(C)C(=CC[C@@H]4[C@@]5(C)CCC(O)C(C)(C)[C@H]5CC[C@]43C)[C@H]2C1 (stereo partly specified) | -0.98 | 5773
O=C(C=Cc1cccnc1)NCCCCC1CCN(C(=O)c2ccccc2)CC1 | i | x
O=S(=O)(NC1CCNCC1)c1cc(S(=O)(=O)c2ccccc2)ccc1C(F)(F)F | 0.98 | 4106
CN(C)CCC(CSc1ccccc1)Nc1ccc(S(=O)(=O)NC(=O)c2ccc(N3CCN(Cc4ccccc4-c4ccc(Cl)cc4)CC3)cc2)cc1[N+](=O)[O-] (stereo unspecified) | -0.45 | 5007
CN(C)c1ccc(O)c2c1C[C@@H]1C[C@@H]3C(N(C)C)C(=O)C(C(N)=O)=C(O)[C@@]3(O)C(=O)C1=C2O (stereo partly specified) | -1.6 | 6075
CSCCC(NC(=O)C1CCCN1C(=O)CNC(=O)C(CCCCN)NC(=O)C(Cc1cnc[nH]1)NC(=O)C(CO)NC(=O)C(CC(C)C)NC(=O)C(CCCN=C(N)N)NC(=O)C1CCCN1C(=O)C(CCCN=C(N)N)CC(=O)C1CCC(=O)N1)C(=O)N1CCCC1C(=O)NC(Cc1ccccc1)C(=O)O (stereo unspecified) | -0.43 | 5362
CC(C)(Sc1ccc(CCN(CCCCC2CCCCC2)C(=O)NC2CCCCC2)cc1)C(=O)O | 0.14 | 4682
COc1cc2ncnc(-n3nc(-c4ccccn4)nc3N)c2cc1OC | -0.42 | 4672
CCN(c1ccccc1)c1cc(NC)[n+](C)c(C)n1 | -0.95 | 6262
CC(=O)NC1C(=NOC(=O)Nc2ccccc2)OC(CO)C(O)C1O (stereo unspecified) | -0.072 | 6318
CC(C)CC(C=O)NC(=O)C(CC(C)C)NC(=O)C(CC(C)C)NC(=O)OCc1ccccc1 (stereo unspecified) | i | x
O=C(Nc1ccc(N2CCOCC2)cc1)c1n[nH]c2ccccc12 | 0.064 | 4350
CCN1C(=O)c2cccc3c(S(=O)(=O)Nc4cccc(C(C)=O)c4)ccc1c23 | -0.7 | 5584
CN1CCN(c2ccc(Nc3c4ccccc4nc4ccccc34)cc2)CC1 | i | x
CC(C)(C)CCN1C[C@@H]2C(CNC(=O)c3cc(Cl)cc(Cl)c3)[C@@H]2C1 (stereo partly specified) | -0.3 | 4386
OCCCNc1cc(-c2ccnc(Nc3cccc(Cl)c3)n2)ccn1 | i | x
O=C(O)CCCCCCCCCCCNC(=O)NC12CC3CC(CC(C3)C1)C2 | -0.25 | 5988
Cc1cc(NC2CCCCC2)nc(-n2nc(C)cc2C)n1 | -2.3 | 5762
CCCc1cc(C)[nH]c(=O)c1CNC(=O)c1cc(-c2ccnc(N3CCN(C)CC3)c2)cc2c1cnn2C(C)C | 0.056 | 6486
O=C1Nc2ccc(I)cc2C1=Cc1cc(Br)c(O)c(Br)c1 | -0.39 | 3841
CC(C)c1ccc2c(c1)c(SC(C)(C)C)c(CC(C)(C)C(=O)O)n2Cc1ccc(Cl)cc1 | -1.8 | 4144
CC1CN(CC(Cc2ccccc2)C(=O)NCC(=O)O)CC[C@@]1(C)c1cccc(O)c1 (stereo partly specified) | -0.17 | 6805
CC(C)(O)c1ccccc1CCC(SCC1(CC(=O)O)CC1)c1cccc(C=Cc2ccc3ccc(Cl)cc3n2)c1 (stereo unspecified) | -0.34 | 4768
CCN(CC)CCNC(=O)c1c(C)[nH]c(C=C2C(=O)Nc3ccc(F)cc32)c1C | i | x
CN(C)C1CCc2[nH]c3ccc(NC(=O)c4ccc(F)cc4)cc3c2C1 (stereo unspecified) | -0.37 | 6107

# Following part
# Second line of a record: supercomplex z	supercomplex z cell count
CC1(C)OC2CO[C@@]3(COS(N)(=O)=O)OC(C)(C)OC3C2O1 (stereo partly specified)
  -0.17	5942
Cc1cc(N2CCOCC2)cc2[nH]c(-c3c(NCC(O)c4cccc(Cl)c4)cc[nH]c3=O)nc12 (stereo unspecified)
  5.5*	1770*
CC1C(NC(=O)C(=NOC(C)(C)C(=O)O)c2csc(N)n2)C(=O)N1S(=O)(=O)O (stereo unspecified)
  -0.12	5610
CCCCCCCCCCC(=O)O
  0.21	6382
CCOC(=O)C=CC(CC(C)C)NC(=O)C(CO)NC(=O)C(NC(=O)c1cccc(O)c1C)C(C)C (stereo unspecified)
  0.0046	6802
CCOc1ccc(CC2NC(=O)CCSSCC(C(=O)N3CCCC3C(=O)NC(CCCN)C(=O)NCC(N)=O)NC(=O)C(CC(N)=O)NC(=O)C(C(C)O)NC(=O)[C@@H](C(C)CC)NC2=O)cc1 (stereo partly specified)
  -0.099	5352
CC(NC(=O)C(C)(C)Oc1ccc(C(F)(F)F)cn1)C(Cc1ccc(Cl)cc1)c1cccc(C#N)c1 (stereo unspecified)
  0.22	4238
O=C1CC2(CCCC2)CC(=O)N1CCCCN1CCN(c2ncccn2)CC1
  -0.0046	5050
CCc1c(C)[nH]c2c1C(=O)C(CN1CCOCC1)CC2 (stereo unspecified)
  -0.006	5154
CN1CCN2c3ccccc3Cc3ccccc3C2C1 (stereo unspecified)
  -0.15	5784
CC1CN(Cc2ccccc2)CC1c1nc2c(cnn2C2CCOCC2)c(=O)[nH]1 (stereo unspecified)
  -0.05	5634
Cc1nc2ccc(NC(=O)Nc3ccnc4cccnc34)cc2o1
  -0.032	6250
COc1cc2c(N3CCN(C(=O)Nc4ccc(OC(C)C)cc4)CC3)ncnc2cc1OCCCN1CCCCC1
  -0.13	4250
CCN(CCO)CCCOc1ccc2c(Nc3cc(CC(=O)Nc4cccc(F)c4)[nH]n3)ncnc2c1
  i	x
O=C(Nc1ccc(S(=O)(=O)Nc2ccccc2Cl)c(Cl)c1)c1ccccn1
  -0.41	5966
Nc1c2c(nc3ccccc13)CCCC2
  -0.27	5870
CC1=C(C)C(=O)C(C(CCCCCC(=O)O)c2ccccc2)=C(C)C1=O (stereo unspecified)
  -0.059	5447
CC(=O)NC(Cc1ccc2ccccc2c1)C(=O)NC(Cc1ccc(Cl)cc1)C(=O)NC(Cc1cccnc1)C(=O)NC(CO)C(=O)NC(Cc1ccc(O)cc1)C(=O)NC(CCCNC(N)=O)C(=O)NC(CC(C)C)C(=O)NC(CCCN=C(N)N)C(=O)N1CCCC1C(=O)NC(C)C(N)=O (stereo unspecified)
  0.088	6780
OCc1c[nH]c2ccccc12
  -0.068	4816
COC(=O)C1=C(C)NC(C)=C(C(=O)OCC(C)C)C1c1ccccc1[N+](=O)[O-] (stereo unspecified)
  1.9	1869
Cc1ccc(Nc2nccc(N(C)c3ccc4c(C)n(C)nc4c3)n2)cc1S(N)(=O)=O
  -1.3	4684
CC(N)=NCCCCC(N)C(=O)O (stereo unspecified)
  -0.73	4939
CN1CCN(c2nc(C3=C(c4c[nH]c5ccccc45)C(=O)NC3=O)c3ccccc3n2)CC1
  -0.22	3616
CC(C)CC(NC(=O)NC(CCC(=O)O)C(=O)O)C(=O)O (stereo unspecified)
  0.23	6414
O=C(NCCN1CCC(n2c(=O)[nH]c3ccccc32)CC1)c1cc2cc(F)ccc2[nH]1
  -0.96	6390
CNC(=O)c1ccc2cc([C@@]3(O)CCn4cncc43)ccc2c1
  0.28	4898
CC=C1C2C=C(C)C[C@]1(N)c1ccc(=O)[nH]c1C2
  -0.53	8033
Cc1cn(-c2cc(C(=O)Nc3ccc(C)c(NC(=O)c4ccno4)c3)cc(C(F)(F)F)c2)cn1
  0.28	3368

# Assay outcomes from PubChem BioAssay.
